MARV entry inh: qHTS for inhibitors of binding or entry into cells for Marburg Virus; Marburg virus pseudotyped entry inhibition, cell reporter; control for the full effect not named in the record; about a third of the inactives were read at about 46 µM; 300,000 compounds, 1.8% hits; AID 540276, 2011; Potency, µM (top dose mostly 37.8 µM), without a hit: at the top dose activity change, negative = inhibition, most hits filed as inhibitors; active = well fitted inhibition curve with a large enough effect; inconclusive = small, poorly fitted or top-dose-only effect, or effect the other way; inactive = flat fitted curve, though single readings scatter; tested in HEK293 cells; about a fifth of its hits are not listed in these tables; further: on the % scale 0 is the no-effect control and ±100 the full control effect; luciferase read-out
Cruzain inh Det: qHTS Assay for Promiscuous and Specific Inhibitors of Cruzain (with detergent). purified cruzain, Z-FR-AMC fluorescence, 0.01% Triton. 200,000 compounds, 0.43% hits. Potency, µM, without a hit: max response, negative = inhibition, most hits filed as inhibitors;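 further: plate controls were neutral wells for no effect and buffer without enzyme for full effect; nearly all actives have a fitted effect of over 40% in size; top concentration of the series not given in the record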
Target sequence (P25779 123-467 limits assumed): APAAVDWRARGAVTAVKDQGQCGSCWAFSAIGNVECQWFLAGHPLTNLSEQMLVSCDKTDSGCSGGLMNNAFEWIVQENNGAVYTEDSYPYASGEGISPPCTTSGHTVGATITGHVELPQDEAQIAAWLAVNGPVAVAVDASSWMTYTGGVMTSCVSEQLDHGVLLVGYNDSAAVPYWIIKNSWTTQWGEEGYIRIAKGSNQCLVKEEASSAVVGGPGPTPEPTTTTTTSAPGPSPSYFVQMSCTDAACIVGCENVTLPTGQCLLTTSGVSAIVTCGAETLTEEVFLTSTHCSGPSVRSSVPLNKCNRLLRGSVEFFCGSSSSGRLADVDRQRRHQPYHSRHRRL
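Z-FR-AMC hydrolysis (2 uM substrate) by cruzain (1.5 nM) monitored kinetically at ex 360/em 450 nm after 15 min room-temperature compound exposure; 0.01% Triton X-100, pH 5.5, 5 mM DTT.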
Cruzain noTriton: qHTS Assay for Promiscuous and Specific Inhibitors of Cruzain (without detergent); Cruzipain (Trypanosoma cruzi), P25779; Potency, µM, for the others: max response, negative = inhibition, actives largely listed as inhibitors; purified cruzain, Z-FR-AMC fluorescence, no detergent; 200,000 compounds, 2.3% hits;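 further: plate controls were enzyme without inhibitor for no effect and buffer without enzyme for full effect; nearly all actives have a fitted effect of over 40% in size; top concentration of the series not given in the record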
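Purified cruzain at 1.5 nM, pre-incubated 15 min with compound at room temperature in 100 mM sodium acetate pH 5.5, 5 mM DTT, 0.00005% Triton X-100. Reaction started with 2 uM Z-FR-AMC; AMC fluorescence increase over 60 s gives rate.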
RE007 growth inh: qHTS Assay for Inhibitors of the HIV-1 protein Vpr. S. pombe RE007 Vpr strain, BacTiter-Glo ATP luminescence, 24 h; control for the full effect not named in the record. Potency, µM (titrated, usually from 92.2 µM), for the others: at the highest dose activity change, negative = less growth. 360,000 compounds, 0.21% hits. AID 651644, 2012; active = well fitted falling curve with a large enough effect; inconclusive = small, poorly fitted or top-dose-only effect; inactive = no such curve, though single readings can be large or run the other way;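 further: on the % scale 0 is the no-effect control and ±100 the full control effect; nearly all actives have a fitted effect of over 50% in size; the assay follows cell death caused by Vpr and the record does not say whether a fall means rescue or toxicity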
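Fission yeast strain RE007, carrying one chromosomally integrated HIV-1 vpr copy, was seeded at OD 0.01 in PMG+AL medium with 23 nL pinned compound. After 24 h at 30 °C and 99% humidity, viability was read by BacTiter-Glo luminescence.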
2A StopGo: High Throughput Screening for Foot and Mouth Disease Virus Antivirals. human cells with a luciferase reporter of 2A StopGo recoding; control for the full effect not named in the record. Potency, µM (series often up to 57.9 µM), for the others: at the highest dose signal change, negative = less light. 410,000 compounds, 1.2% hits. AID 1159524, 2015; active = well fitted falling curve with a large enough effect; inconclusive = small, poorly fitted or top-dose-only effect; inactive = no such curve, though single readings can be large or run the other way; tested in HEK293T cells; further: on the % scale 0 is the no-effect control and ±100 the full control effect; nearly all actives have a fitted effect of over 45% in size; luciferase light after 4 h
NS1 inh: qHTS Assay for Inhibitors of Influenza NS1 Protein Function; 270,000 compounds, 0.4% hits; AID 2326, 2010; Potency, µM (top dose mostly 46.1 µM), inactives show top-dose activity, positive = more growth; S. cerevisiae slowed by influenza A NS1, growth recovery by OD600; active means well fitted rising curve with a large enough effect; inconclusive means small, poorly fitted or top-dose-only effect; inactive means no such curve, though single readings can be large or run the other way; further: nearly all actives have a fitted effect of over 50% in size
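S. cerevisiae expressing influenza A NS1, grown in glucose, washed, then diluted 1:100 into pH 6.0 -URA galactose medium with 23 nl compound. Growth recovery read as OD600; NS1-free strain serves as control.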
SARS PLpro yeast: qHTS of Yeast-based Assay for SARS-CoV PLP; S. cerevisiae expressing SARS-CoV PLpro, growth rescue; control for the full effect not named in the record; Potency, µM (highest dose often 32.9 µM), without a hit: at the highest dose activity, positive = growth rescue; 330,000 compounds, 0.19% hits; AID 485353, 2010; active means well fitted rising curve with a large enough effect; inconclusive means small, poorly fitted or top-dose-only effect; inactive means no such curve, though single readings can be large or run the other way; further: 0% is about no effect; nearly all actives have a fitted effect of over 55% in size; growth read by luminescence after 48 h
LASV entry inh: qHTS for Inhibitors of binding or entry into cells for Lassa Virus | Lassa virus pseudotype entry inhibition, cell reporter; control for the full effect not named in the record | Potency, µM (titrated, usually from 37.9 µM), inactives show at the highest dose activity change, negative = inhibition, hits mostly inhibitors | 300,000 compounds, 1.2% hits; active means well fitted inhibition curve with a large enough effect; inconclusive means small, poorly fitted or top-dose-only effect, or effect the other way; inactive means flat fitted curve, though single readings scatter; tested in HEK293 cells; further: on the % scale 0 is the no-effect control and ±100 the full control effect; nearly all actives have a fitted effect of over 50% in size; luciferase read-out
Numbers without * were called inactive; ? = inconclusive; . = not tested or not shown; & = joins results of further samples; [ ] = dose if it differs, or a comment. Unless noted, the call rests on the fitted dose curve; in most records, active means well fitted curve in the direction sought with a large enough effect; inconclusive means small, poorly fitted or top-dose-only effect, or another doubt; inactive means no such curve, though single readings can be large; an effect the other way counts as inactive or inconclusive. Potency means the concentration at half of the fitted maximal effect. Not a hit list; about 4.8% have a hit in one of these screens.

Sequence of screens – MARV entry inh, Cruzain inh Det, Cruzain noTriton, RE007 growth inh, 2A StopGo, NS1 inh, SARS PLpro yeast, LASV entry inh
1: Cc1oc(-c2cccc(Cl)c2)nc1CN1CCC(C(=O)NCCCN2CCCC2=O)CC1
    -4%, 0.0%, 0%, -5%, -12%, 0%, 1%, .
2: CCOc1ccc(N2CC(C(=O)Nc3ccc(S(=O)(=O)N4CCCC4)cc3)CC2=O)cc1 (stereo not drawn)
    -9%[46.1 µM], ., ., 1%, 72%[activator], -12%, 0%, -2%
3: COC(C(=O)Nc1ccnn1C1CCN(Cc2cnn(C(C)C)c2)CC1)c1ccccc1 (stereo not drawn)
    -7%[46.1 µM], ., ., -2%, -7%, 0%, -5%, 14%[46.1 µM]
4: Clc1cccc(/C=N/Nc2nnc(Cl)c3ccccc23)c1
    16%, 1.7%, ?, -3%, ., -11%, -19%, 0%
5: Cn1c(O)c(C2=c3ccccc3=NC2=O)[nH]c1=S
    ?, -1.6%, 8%, 0%, -15%, 13%, -3%, 17%
6: COC(=O)c1ccccc1NC(=O)CCC(=O)N1CC(C)Oc2ccc(C)cc21 (stereo not drawn)
    ., ., ., -4%, -29%, -27%, ?, .
7: Cc1ccc(-n2nnnc2CNC(=O)c2ccc(F)cc2)cc1C
    ., 4.4%, -2%, ., 2%, ., ., -5%[46.1 µM]
8: Cc1ccc(CNS(=O)(=O)c2c(C)[nH]c(C)c2C(=O)N2CCCCC2)cc1
    ., ., ., 0%, 20%, -1%, 2%, .
9: O=C(NC(=S)NNC(=O)c1ccco1)c1ccc(F)cc1
    ., ., ., -29%, 8%, -88%, -7%, .
10: N/C(COc1cccc(C(F)(F)F)c1)=N\NC(=O)c1cccnc1Oc1ccccc1
    -20%, 0.0%, -2%, -14%, -16%, -1%, 5%, -46%
11: CCOC(=O)CSc1nc(C)c(CC)c(C)c1C(N)=O
    26%[46.1 µM], ., ., -4%, -3%, 4%, -1%, ?
12: O=C(Nc1cccc(F)c1)C1CCN(c2nnnn2-c2ccccc2)CC1
    9%, -3.3%, -1%, 12%, 18µM*, -7%, 2%, ?
13: CC(C1CC1)N(Cc1ccccc1)C(=O)NC(=O)c1cccc(F)c1 (stereo not drawn)
    -2%[46.1 µM], ., ., -4%, -13%, ., -1%, ?
14: CCN(Cc1ccccc1)C(c1cc2cc(C)ccc2[nH]c1=O)c1nnnn1CCOC (stereo not drawn)
    ?, -5.6%, ?, -11%, 0%, -37%, 4%, -16%
15: CC(C)C(=O)NNC(=O)CSc1nnc(-c2ccccc2)c(-c2ccccc2)n1
    ., ., ., 13%, -3%, 22%, -1%, .
16: NC(=O)c1ccc(SCC(=O)OCC(=O)NCc2ccco2)c([N+](=O)[O-])c1
    0%, ., ., 6%, 0%, ., 2%, 0%
17: Cc1cc(SCc2c(F)cccc2Cl)nc(=O)[nH]1
    ., ., ., -6%, 10%, 1%, -3%, .
18: CC(=O)OC(C(=O)Nc1nccs1)c1ccccc1 (stereo not drawn)
    6%, ., ., 9%, 4%, 4%, -7%, 8%
19: Cc1ccc(NC(=O)NCCN2C(=O)C3C4C=CC(C4)C3C2=O)cc1 (stereo not drawn)
    2%, 5.3%, -6%, 6%, 84%[activator], 4%, 4%, .
20: CN(C)c1nc(N)nc(N(c2ccccc2)c2ccccc2)n1
    -26%, -1.1%, 3%, 5%, -8%, -22%, 7%, -14%

Brought forward from above: 3 compounds, followed by the next part.
Sequence of screens – MARV entry inh, Cruzain inh Det, Cruzain noTriton, RE007 growth inh, 2A StopGo, NS1 inh, SARS PLpro yeast, LASV entry inh
18: CC(=O)OC(C(=O)Nc1nccs1)c1ccccc1 (stereo not drawn)
    6%, ., ., 9%, 4%, 4%, -7%, 8%
19: Cc1ccc(NC(=O)NCCN2C(=O)C3C4C=CC(C4)C3C2=O)cc1 (stereo not drawn)
    2%, 5.3%, -6%, 6%, 84%[activator], 4%, 4%, .
20: CN(C)c1nc(N)nc(N(c2ccccc2)c2ccccc2)n1
    -26%, -1.1%, 3%, 5%, -8%, -22%, 7%, -14%
21: Cc1ccccc1N1CC(c2nc3ccccc3[nH]2)CC1=O (stereo not drawn)
    14%, 7.5%, -12%, -3%, -12%, 8%, -1%, -3%
22: O=C(O)C1CCN(Cc2cnn(-c3ccccc3)c2-n2cccc2)CC1
    12%, ., ., 6%, 14%, -7%, ., -5%
23: NC1=NC2(CCCC2)n2c(nc3ccccc32)N1
    -9%[46.1 µM], ., ., -24%, -12%, ., -1%, -15%[46.1 µM]
24: O=C(Cn1c(O)c(N=NC(=O)c2ccncc2)c2ccccc21)Nc1ccccc1
    2%[46.1 µM], ., ., 16%, -16%, -5%, 0%, -5%
25: Cc1cc(O)c(Sc2ncn[nH]2)cc1NS(=O)(=O)c1ccc(Cl)cc1
    -26%, ., ., 2%, -12%, ., 7%, -1%
26: Cc1nnc(SCC(=O)NCc2ccccc2F)c2nn(-c3ccc(Cl)cc3)c(C)c12
    ., -2.6%, -3%, ., -25%, ., ., -11%[46.1 µM]
27: Cn1cc(S(=O)(=O)Nc2ccc(Br)cc2F)c(=O)n(C)c1=O
    ., 4.5%, -12%, 3%, -8%, -86%, 8%, .
28: CCOc1cc(NC(=S)Nc2ccccc2)c(OCC)cc1NC(=O)c1ccccc1
    ?, -5.6%, ?, -2%, -10%, ?, 2%, -16%
29: Cn1cc(Br)c(C(=O)N/N=C/c2cccc(OC3CSC3)c2)n1
    -11%, -7.7%, -7%, 14%, 1%, 10%, 14%, 6%
30: CCOc1ccccc1N1CCN(S(=O)(=O)c2cc(C)ccc2OC)CC1
    ?, ., ., 22%, -5%, -54%, -7%, ?
31: COC(=O)c1cc2c(C)[nH]c(C)c2cc(C(=O)OC)c1=O
    13%, -6.5%, -8%, -1%, -9%, 14%, 6%, 1%
32: CC(C(=O)NCC1CCCCC1)N1CCN(S(=O)(=O)c2ccccc2F)CC1 (stereo not drawn)
    -14%[46.1 µM], ., ., -22%, -9%, ., 1%, 3%[46.1 µM]
33: CCOC(=O)CNc1nnc(SCC(=O)OCC)[nH]c1=O
    6%, 2.8%, 7%, -5%, -14%, 3%, -1%, 6%
34: O=C(CN1C(=O)CSc2ccc(S(=O)(=O)N3CCCCC3)cc21)NCc1ccccc1Cl
    ., ., ., -7%, 6%, -5%, 1%, .
35: O=C(O)/C=C(\CC(=O)O)C(=O)O
    ., -1.0%&4.0%, 9%&0%, ., -6%, 0%, ., .
36: Cc1ccc(NC(=O)Cc2nnc(SCC(=O)Nc3nncs3)n2C)c(C)c1
    -14%[46.1 µM], ., ., -13%, 0%, 10%, 1%, -13%[46.1 µM]
37: N=c1ccn(CC(=O)c2ccc(-c3ccccc3)cc2)cc1
    ?, ., ., ?, ?, -5%, -2%, ?
38: CC(C)(C)c1ccc(OCC(=O)NC(Cc2c[nH]c3ccccc23)C(=O)O)cc1 (stereo not drawn)
    7%[46.1 µM], -17%, 29%, ., 3%, ., ., -25%[46.1 µM]
39: O=C(Cn1nc(C(=O)O)c2ccccc2c1=O)Nc1ccc(F)cc1
    25%[46.1 µM], ., ., -5%, 3%, 17%, 3%, 15%[46.1 µM]
40: CC1(C(=O)N/N=C/c2ccc3c(c2)OCO3)CC1(Br)Br (stereo not drawn)
    ., ., ., 14%, -4%, 1%, 0%, .
41: COc1ccc(NC(=O)CN2CCN(c3ccccn3)CC2)cc1Cl
    ., ., ., -15%, -18%, -3%, 2%, .
42: COc1ccc(S(=O)(=O)N2CCC(C(=O)OCC(=O)c3ccccc3)CC2)cc1[N+](=O)[O-]
    ?, -2.0%, ?, 7%, -7%, 6%, -12%, 6%
43: Cc1oc(C)c2c(=O)cc(-c3ccc4c(c3)OCO4)cc(OC(=O)c3ccccc3Cl)c12
    ?, -2.2%, -4%, ., -22%, ., ., -18%[46.1 µM]
44: COc1ccccc1OCCNC(=O)Nc1ccc(Br)cc1
    6%, ., ., -23%, 16%, -36%, -1%, ?
45: C=CCn1nnnc1SCC(=O)Nc1cccc(OC)c1
    15%, -1.3%, -9%, 4%, 23%, -5%, 1%, -2%
46: Cc1cc(C)c2cc(C)c(SCC(=O)NCc3ccco3)nc2c1
    ., ., ., -2%, -5%, -2%, 0%, .
47: COC(=O)c1c(C(=O)OC)c(-c2ccc(Cl)c(Cl)c2)n2c1CCC2
    ?, -10%, ?, 5%, ?, -52%, -34%, -15%
48: CC(=O)c1ccc(Nc2cc(C)nc3nc(Cc4ccccc4)nn23)cc1
    6%[46.1 µM], -2.0%, 7%, ., -5%, ., ., -2%[46.1 µM]
49: CCNC(=O)C(=O)NCC(c1cccs1)S(=O)(=O)c1ccc(C)cc1 (stereo not drawn)
    ., ., ., 7%, -25%, ?, 3%, .
50: CCOC(=O)c1ccc(NC(=O)CSc2nnc(CNc3ccc(OC)cc3)n2C)cc1
    -2%, -3.9%, -8%, -5%, ., -7%, 11%, 17%
51: COc1ccc(-c2cc(C(=O)Nc3ccc(OC)c(OC)c3)no2)cc1
    0%, ., ., 14%, -4%, 1%, 1%, ?
52: CCc1cc(C(=O)NCCN(C)C)cs1
    5%, 7.4%, -5%, -6%, -13%, 3%, 1%, 3%
53: CCCS(=O)(=O)N1CCCC(C(=O)NCC2CCCO2)C1 (stereo not drawn)
    12%, 8.3%, -1%, 7%, -26%, 0%, 6%, 10%
54: N#C/C(=N\Nc1ccc(S(=O)(=O)N2CCc3ccccc32)cc1)C(N)=S
    -17%[46.1 µM], ., ., -3%, ?, ., 0%, -25%
55: Oc1ccccc1CC=NC1CCCCC1
    10%, ., ., -7%, 3%, ., ., 18%
56: CN(c1ccc(OCC(=O)OCC(=O)NCc2ccco2)cc1)S(=O)(=O)c1ccc2ccccc2c1
    26%[46.1 µM], ., ., 2%, -9%, 4%, 2%, 4%

Bioassay records: PubChem BioAssay, National Center for Advancing Translational Sciences (NCATS)
